Sfp PPTase inh: inhibitors of Bacillus subtilis Sfp phosphopantetheinyl transferase; Biochemical Sfp PPTase activity, qHTS; Potency, µM, for the others: max response, negative = inhibition, usual class: inhibitors; 310,000 compounds, 3.5% hits; active = well fitted inhibition curve with a large enough effect; inconclusive = small, poorly fitted or top-dose-only effect, or another doubt; inactive = no such curve, though single readings can be large or run the other way;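 note: the enzyme is Sfp with the accession as filed and its product quenches rhodamine fluorescence; potency is the fitted concentration of half-maximal effect; 0% = enzyme reaction without inhibitor and -100% = no enzyme wells; top concentration of the series not given in the record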
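Fluorescence-quenching assay: 15 nM Sfp-PPTase preincubated 15 min at room temperature with compound, then 5 uM rhodamine-CoA and 12.5 uM BHQ-2-labelled YbbR peptide added. Fluorescence (ex 525/em 598 nm) read at start and after 30 min; difference gives rate.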
ClpP mod: qHTS Assay for Activators of ClpP; Potency, µM (series often up to 57.5 µM), for the others: at the top dose activity change, negative = active; AID 651965, 2013; 340,000 compounds, 1.9% hits; purified B. subtilis ClpP, FRET peptide cleavage, 20 min; active = well fitted falling curve with a large enough effect; inconclusive = small, poorly fitted or top-dose-only effect; inactive = no such curve, though single readings can be large or run the other way; note: potency is the fitted concentration of half-maximal effect; the source files actives as falling curves though it sought activators and does not explain the sign; nearly all actives have a fitted effect of over 65% in size; many hits overshoot -100%
Target sequence (P80244 whole entry, looked up): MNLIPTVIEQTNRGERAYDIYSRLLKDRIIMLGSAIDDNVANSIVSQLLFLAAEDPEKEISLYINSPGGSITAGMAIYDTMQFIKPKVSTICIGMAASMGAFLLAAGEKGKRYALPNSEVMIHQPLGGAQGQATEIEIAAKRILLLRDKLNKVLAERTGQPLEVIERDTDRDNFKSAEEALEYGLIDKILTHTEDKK
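FRET quenching reversal measured ClpP activation: 10 microg/mL B. subtilis ClpP at pH 8 with the FRET-FV decapeptide, read at 430 nm after 320 nm excitation. The 20-min minus 0-min signal was scaled between DMSO/no-enzyme wells and ADEP (5.8 microM final).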
TRPV1 potentiator: human TRPV1 potentiation | Q8NER1 | TRPV1-expressing cells, Fluo-8 calcium influx, capsaicin EC20 potentiation; host cell line not named in the record; control for the full effect not named in the record | potentiation, % at 8.33 µM | 320,000 compounds, 0.02% hits | AID 540277; active means potentiation above 80%; inconclusive means 30% to 80%; inactive means below 30%; note: 0% is about no effect
Target sequence (Q8NER1 whole entry, looked up): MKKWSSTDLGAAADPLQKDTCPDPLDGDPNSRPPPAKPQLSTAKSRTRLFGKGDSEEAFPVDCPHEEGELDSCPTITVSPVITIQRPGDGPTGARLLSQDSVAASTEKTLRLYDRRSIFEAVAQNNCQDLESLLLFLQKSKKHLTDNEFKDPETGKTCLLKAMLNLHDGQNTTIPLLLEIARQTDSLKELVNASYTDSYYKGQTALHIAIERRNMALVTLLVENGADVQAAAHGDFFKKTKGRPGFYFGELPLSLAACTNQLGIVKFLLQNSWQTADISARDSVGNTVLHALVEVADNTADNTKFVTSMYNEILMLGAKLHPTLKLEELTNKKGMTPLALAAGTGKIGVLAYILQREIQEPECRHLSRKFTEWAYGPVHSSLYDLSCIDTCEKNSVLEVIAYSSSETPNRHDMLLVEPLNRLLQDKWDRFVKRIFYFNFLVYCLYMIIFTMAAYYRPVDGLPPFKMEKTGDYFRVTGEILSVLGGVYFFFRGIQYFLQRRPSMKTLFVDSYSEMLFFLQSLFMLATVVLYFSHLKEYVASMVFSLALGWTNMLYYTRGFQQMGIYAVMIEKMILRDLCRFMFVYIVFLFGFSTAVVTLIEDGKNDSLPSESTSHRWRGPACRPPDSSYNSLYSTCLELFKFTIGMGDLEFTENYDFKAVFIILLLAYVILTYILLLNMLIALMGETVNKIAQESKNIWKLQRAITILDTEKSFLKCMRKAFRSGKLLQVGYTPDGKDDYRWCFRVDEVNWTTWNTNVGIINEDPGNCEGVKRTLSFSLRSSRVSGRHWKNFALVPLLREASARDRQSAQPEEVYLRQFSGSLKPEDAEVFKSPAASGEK
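Cells expressing TRPV1 were dye-loaded with Fluo-8 and read kinetically: 10 s baseline, 3 min after compound (agonist portion), then 2 min after EC20 capsaicin (allosteric enhancer portion). Calcium-bound dye fluorescence at 480/520 nm.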
CtBP-E1A blk: CtBP/E1A binding inhibition. AID 651724. AlphaScreen GST-E1A/His-CtBP binding, 1536-well; hits give low values; control for the full effect not named in the record. 340,000 compounds, 0.49% hits. activity change, % (concentration not given with the values); in the data active means activity change below about -65%; inconclusive means about -30% to -65%; inactive means above about -30%; note: % is set by controls: 0 for no effect and ±100 for the full control effect
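In 5 uL wells, 23 nL compound meets equimolar GST-E1A and His-CtBP (5X stock 125 nM each) for 2 h, 37 °C. Beads (5X, 50 ug/mL) then 1 h, 37 °C, dark.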
Menin MLL FP FL: inhibitors of human menin-MLL interaction, wild-type MLL peptide. Fluorescence polarization, fluorescein-MLL peptide displacement from menin. FP activity change, % at 61.4 µM. 290,000 tested, under 10 active; inconclusive = falling polarisation curve, or a change in total fluorescence; inactive = total fluorescence flat and polarisation flat or rising; no compound was filed as active; the % refers to the polarisation; negative = inhibition;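 note: % of control where 0% means no effect; inhibitors lower the polarisation; unlabelled MLL peptide was the positive control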
gsp antagonist: gsp mutant antagonism; gsp-mutant cells, cAMP HTRF, 30 min; control for the full effect not named in the record; 340,000 compounds, 0.4% hits; AID 624288; Potency, µM (titrated, usually from 76.9 µM), without a hit: at the highest dose activity change, negative = inhibition, actives largely listed as inhibitors; active = falling curve of any shape with a large fitted effect; inconclusive = falling curve, mostly with a smaller effect; inactive = flat or rising curve; cell line not stated here;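 note: intracellular cAMP measured with PDE inhibitor Ro 20-1724 present during compound exposure; potency is the fitted concentration of half-maximal effect; % is set by controls: 0 for no effect and ±100 for the full control effect; nearly all actives have a fitted effect of over 65% in size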
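Cells in G418 medium, seeded 16-24 h, 37C; buffer exchange to DPBS + 1 mM CaCl2, 0.5 mM MgCl2, 0.05% BSA; cpds in DMSO + […] (300 uM stock), 30 min 37C; HTRF cAMP detection.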
gsp ag: agonists of gsp mutant (McCune-Albright syndrome). 340,000 compounds, 0.13% hits. Potency, µM (top dose mostly 76.9 µM), for inactives: at the highest dose activation (cAMP increase), actives largely listed as activators. gsp mutant cells, cAMP HTRF, 30 min; control for the full effect not named in the record; active = well fitted activation curve with a large enough effect; inconclusive = small, poorly fitted or top-dose-only effect, or another doubt; inactive = no such curve, though single readings can be large or run the other way; cell line not stated here;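 note: phosphodiesterase inhibitor Ro 20-1724 added with compounds to block cAMP breakdown; potency is the fitted concentration of half-maximal effect; nearly all actives have a fitted effect of over 60% in size; about a fifth of the inactives were tested at one dose only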
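Cells in DMEM/10% FBS with G418 were pretreated with compounds in DMSO plus […] (300 uM stock) for 30 min at 37C. cAMP was measured by HTRF (cAMP-d2 plus anti-cAMP antibody-K) after 30 min at room temperature.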
An asterisk follows results filed as active; [ ] = dose if it differs, or a comment.

What do the screens show for `Clc1cccc2c1Sc1ccccc1CC2N1CCNCC1` (configuration not stated)?
Sfp PPTase inh: 56µM*; ClpP mod: 0.4%; TRPV1 potentiator: -2; CtBP-E1A blk: 0; Menin MLL FP FL: -4.0; gsp antagonist: 31%[activator]; gsp ag: 0%[15.4 µM]

How did CC(c1nccs1)N(C)c1nc2nonc2nc1N(C)C (configuration not stated) do in these assays?
Sfp PPTase inh: 1%; TRPV1 potentiator: 2; CtBP-E1A blk: -3; Menin MLL FP FL: -12; gsp antagonist: 7%; gsp ag: 3%

What do the screens show for `Cc1ccc(N2C(=O)[C@@H]3C(C(=O)C(c4ccccc4)c4ccccc4)=NN[C@@H]3C2=O)cc1`?
Sfp PPTase inh: 23%; ClpP mod: -1.5%; TRPV1 potentiator: 12; CtBP-E1A blk: 0; Menin MLL FP FL: 0.7; gsp antagonist: -3%; gsp ag: 13%

How did COc1ccc(/C=C2\SC(c3ccc(C)cc3)=NC2=O)cc1OC do in these assays?
Sfp PPTase inh: inconclusive; ClpP mod: 0.9%; TRPV1 potentiator: 6; CtBP-E1A blk: inconclusive; Menin MLL FP FL: inconclusive; gsp antagonist: 12%; gsp ag: 1%

What do the screens show for `CN(C)S(=O)(=O)c1ccc(SCC(=O)N2CC(=O)Nc3ccccc32)nc1`?
ClpP mod: -0.7%; TRPV1 potentiator: 3; CtBP-E1A blk: 1; gsp antagonist: 2%; gsp ag: 9%

What do the screens show for `O=C(Cc1n[nH]c(=O)c2ccccc12)N1CCN(S(=O)(=O)c2ccc(F)c(Cl)c2)CC1`?
CtBP-E1A blk: -1; gsp antagonist: -5%; gsp ag: -3%

Results for CN(CCCCCC(=O)/C=N/O)Cc1ccccc1 ?
Sfp PPTase inh: 17%; ClpP mod: -0.3%; TRPV1 potentiator: 1; CtBP-E1A blk: 1; Menin MLL FP FL: 4.7; gsp antagonist: 11%; gsp ag: 5%

Results for CCOC(=O)Nc1ccc2c(c1)N(C(=O)CN1CCN(C)CC1)c1ccccc1CC2 ?
Sfp PPTase inh: 14%; ClpP mod: 1.3%; TRPV1 potentiator: -7; CtBP-E1A blk: 8; Menin MLL FP FL: -2.0; gsp antagonist: 12%; gsp ag: -47%

What do the screens show for `Cc1ccsc1CN(C)C(=O)CN1C(=O)NC(c2ccccc2)(c2ccccc2)C1=O`?
ClpP mod: 0.6%; TRPV1 potentiator: 1; CtBP-E1A blk: -11; gsp antagonist: -11%; gsp ag: 3%

Results for O=S(=O)(Nc1ccc(Br)cc1)c1cccc2nonc12 ?
Sfp PPTase inh: 15%; ClpP mod: -0.4%; TRPV1 potentiator: 18; CtBP-E1A blk: 0; gsp antagonist: -18%; gsp ag: -2%

How did CN(CCCC1CCCC1)C(=O)CC1C(=O)NCCN1Cc1cccc(F)c1F (configuration not stated) do in these assays?
Sfp PPTase inh: -5%; ClpP mod: -6.3%; TRPV1 potentiator: -4; CtBP-E1A blk: -3; gsp antagonist: -7%; gsp ag: 9%[15.4 µM]

What do the screens show for `COc1ccc(-c2c(C#N)c(N)nc(Sc3ccc(Cl)cc3)c2C#N)cc1`?
Sfp PPTase inh: -17%; TRPV1 potentiator: -12; CtBP-E1A blk: 1; Menin MLL FP FL: -1.2; gsp antagonist: 28%; gsp ag: 10%[15.4 µM]

Results for CC1(C)Cc2ccccc2C(=O)N1 ?
Sfp PPTase inh: 11%; ClpP mod: -0.1%; TRPV1 potentiator: -3; CtBP-E1A blk: -3; Menin MLL FP FL: 5.0; gsp antagonist: 2%; gsp ag: -37%[inhibitor]

Results for Cc1nn(C)c(C(=O)NNC(=S)NCc2ccco2)c1Cl ?
Sfp PPTase inh: -30%; ClpP mod: 0.6%; TRPV1 potentiator: -11; CtBP-E1A blk: -1; Menin MLL FP FL: 0.6; gsp antagonist: -13%; gsp ag: 0%

What do the screens show for `CC(C)C1C(=O)N(Cc2cn(CCC3OCCCO3)nn2)CCS(=O)(=O)N1Cc1ccc(-c2ccc(Cl)c(Cl)c2)cc1` (configuration not stated)?
ClpP mod: -4.8%; CtBP-E1A blk: -2; gsp ag: 24%

What do the screens show for `Cc1ccc(NC(=S)N2CCC(c3ccccc3)C2)c(Cl)c1` (configuration not stated)?
Sfp PPTase inh: 10%; TRPV1 potentiator: -10; CtBP-E1A blk: -1; Menin MLL FP FL: 2.1; gsp antagonist: -17%; gsp ag: -15%[15.4 µM]

How did COc1cc([N+](=O)[O-])cc2sc(NC(C)=O)nc12 do in these assays?
Sfp PPTase inh: 40µM*; ClpP mod: -1.5%; TRPV1 potentiator: 2; Menin MLL FP FL: -0.3; gsp antagonist: -8%; gsp ag: -33%[inhibitor]

Results for CC1Nc2ncnc(N3CCN(c4ccccc4)CC3)c2N(Cc2ccc(Cl)cc2)C1=O (configuration not stated) ?
ClpP mod: -7.3%; TRPV1 potentiator: 15; gsp antagonist: -12%; gsp ag: -4%

Results for COC(=O)C1=CNC=C(C(=O)OC)C1c1ccc(C(=O)OC)cc1 ?
Sfp PPTase inh: -5%; ClpP mod: 28µM*; TRPV1 potentiator: -4; CtBP-E1A blk: 11; Menin MLL FP FL: -3.5; gsp antagonist: 20%; gsp ag: -32%[inhibitor]

How did CCCCNC(=O)CSc1nc2ccsc2c(=O)n1CCCC(=O)NCCc1ccc(S(N)(=O)=O)cc1 do in these assays?
Sfp PPTase inh: 18%; TRPV1 potentiator: -11; CtBP-E1A blk: -2; Menin MLL FP FL: 4.2; gsp antagonist: 4%; gsp ag: 27%

A stretch from further up, for reference:
Results for COC(=O)C1=CNC=C(C(=O)OC)C1c1ccc(C(=O)OC)cc1 ?
Sfp PPTase inh: -5%; ClpP mod: 28µM*; TRPV1 potentiator: -4; CtBP-E1A blk: 11; Menin MLL FP FL: -3.5; gsp antagonist: 20%; gsp ag: -32%[inhibitor]

How did CCCCNC(=O)CSc1nc2ccsc2c(=O)n1CCCC(=O)NCCc1ccc(S(N)(=O)=O)cc1 do in these assays?
Sfp PPTase inh: 18%; TRPV1 potentiator: -11; CtBP-E1A blk: -2; Menin MLL FP FL: 4.2; gsp antagonist: 4%; gsp ag: 27%

More records:
What do the screens show for `CCOc1ccc(CCNC(=O)c2ccc(CS(=O)Cc3ccccc3Cl)o2)cc1` (configuration not stated)?
Sfp PPTase inh: 22%; ClpP mod: -1.1%; TRPV1 potentiator: -1; CtBP-E1A blk: -6; Menin MLL FP FL: -0.3; gsp antagonist: -7%; gsp ag: 26%

What do the screens show for `COc1ccc(CN2CCN(CCCc3ccccc3)C(CCO)C2)cc1OC` (configuration not stated)?
Sfp PPTase inh: 3%; ClpP mod: -18%; TRPV1 potentiator: -11; CtBP-E1A blk: 2; Menin MLL FP FL: 3.5; gsp antagonist: 1%; gsp ag: -4%[15.4 µM]

What do the screens show for `O=C(Nc1ccc(S(=O)(=O)Nc2ncccn2)cc1)c1ccc(Br)s1`?
Sfp PPTase inh: 21%; ClpP mod: -2.1%; TRPV1 potentiator: 2; CtBP-E1A blk: -8; Menin MLL FP FL: 2.7; gsp antagonist: -4%; gsp ag: inconclusive

How did CC(=O)O[C@@]1(C)C[C@@H](O)[C@]2(O)C=CO[C@@H](O[C@@H]3O[C@H](CO)[C@@H](O)[C@H](O)[C@H]3O)[C@@H]21 do in these assays?
ClpP mod: 0.1%; TRPV1 potentiator: -15; CtBP-E1A blk: 9; gsp antagonist: 7%

Results for COc1cc(/C=C(\C(=O)O)c2ccc(S(=O)(=O)N3CCCC3)s2)ccc1OCCC(C)C ?
ClpP mod: -0.9%; CtBP-E1A blk: 0; gsp antagonist: -28%; gsp ag: -9%

What do the screens show for `Cc1ccccc1NC(=O)C1C2C=CC(C3CC23)C1C(=O)O` (configuration not stated)?
Sfp PPTase inh: inconclusive; TRPV1 potentiator: 1; CtBP-E1A blk: 3; Menin MLL FP FL: -0.9; gsp antagonist: 13%; gsp ag: -59%[inhibitor]

Results for COc1ccc(Nc2ccc(S(=O)(=O)N3CCCCC3)cc2[N+](=O)[O-])cc1Cl ?
Sfp PPTase inh: 8%; ClpP mod: -2.6%; TRPV1 potentiator: 3; CtBP-E1A blk: inconclusive; Menin MLL FP FL: 2.0; gsp antagonist: 1%; gsp ag: 13%

Results for Cc1ccc(C(=O)COC(=O)CNC(=O)c2ccc(Br)o2)cc1[N+](=O)[O-] ?
Sfp PPTase inh: 11%; ClpP mod: 0.8%; TRPV1 potentiator: 8; Menin MLL FP FL: 0.4; gsp antagonist: -7%; gsp ag: inconclusive

Results for Cc1cc(C=C2C(=O)CCCC2=O)c(C)n1-c1ccccc1 ?
Sfp PPTase inh: 3%; ClpP mod: 0.4%; TRPV1 potentiator: 10; CtBP-E1A blk: -1; Menin MLL FP FL: -5.1; gsp antagonist: 4%; gsp ag: 2%

Results for COc1ccc(/[N+]([O-])=C/c2ccoc2)cc1 ?
ClpP mod: 0.6%; TRPV1 potentiator: 8; CtBP-E1A blk: -7; gsp antagonist: 9%; gsp ag: 22%

How did CC1C(=O)N2CCCc3cc(S(=O)(=O)N(C)CCC#N)cc1c32 (configuration not stated) do in these assays?
Sfp PPTase inh: 21%; ClpP mod: 1.9%; TRPV1 potentiator: -6; Menin MLL FP FL: -2.5; gsp antagonist: 7%; gsp ag: 2%

How did COc1ccc(-c2cc3c(=O)n(CC(=O)N4CCCCC4)ncn3n2)cc1 do in these assays?
Sfp PPTase inh: 6%; ClpP mod: inconclusive; TRPV1 potentiator: 4; CtBP-E1A blk: -2; Menin MLL FP FL: -2.6; gsp antagonist: 11%; gsp ag: -22%

What do the screens show for `COc1cc(-c2noc(CCCC(=O)Nc3cccnc3)n2)cc(OC)c1OC`?
Sfp PPTase inh: 3%; TRPV1 potentiator: -19; CtBP-E1A blk: 8; Menin MLL FP FL: 1.2; gsp antagonist: -6%; gsp ag: 24%

What do the screens show for `Cc1nn(-c2ccccc2)c(NC(=O)C(C)C)c(-c2ccccc2)c1=O`?
Sfp PPTase inh: 16%; ClpP mod: 0.3%; TRPV1 potentiator: -24; CtBP-E1A blk: 0; Menin MLL FP FL: 1.2; gsp antagonist: 7%; gsp ag: 13%[15.4 µM]

Results for O=C(C1CCCN1S(=O)(=O)c1ccc(Br)cc1)N1CCOCC1 (configuration not stated) ?
Sfp PPTase inh: -2%; TRPV1 potentiator: 5; CtBP-E1A blk: 2; Menin MLL FP FL: 3.7; gsp antagonist: 22%; gsp ag: 13%

Compound activity from PubChem.
